# Screening results (PubChem BioAssay)
# RGS16-Gao: modulators of RGS16 binding to Galphao, primary screen, biochemical, human proteins, multiplexed bead flow cytometry; bead-based flow cytometry RGS16-Galphao binding, fluorescence; actives lie on both sides; binding response (% of control), % at 10 µM; actives 0.38% (n = 220,000);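 active means below 25% or above 175%, edge rows of some plates excepted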;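 further: Galphao activated by GDP with aluminum fluoride before binding; 100% = wells without compound and 0% = beads without RGS; some results beyond the cut were filed as inactive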
# Insulin prom inh: inhibitors of insulin promoter-driven GFP, primary screen, imaging, TRM-6 cells (human fetal islet line), eGFP reporter, cell count; reporter expression induced with tamoxifen; inhibition, % at 2 µM; actives 0.9% (n = 130,000); AID 1273, 2008;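 active means inhibition above the mean plus 3 SD, with well images judged a real hit on visual review, cut at about 60% in these data, passing the limit was not always enough; inconclusive means inhibition over the cutoff but images rejected on review; inactive means inhibition not above the cutoff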
# HSV augment: enhancers of HSV replication in host cells, fold increase, host cell viability. HSV replication augmentation in cells. maximum fold increase. actives 0.005% (n = 220,000). AID 1956, 2009;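 active means peak rise of 1.5-fold or more in the series; inconclusive means self-fluorescent or not available for retest; tested in PC3 cells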;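 further: first round at 10 µM; read as green reporter fluorescence; hits show the peak of a series up to 25 µM; 1 = signal of infected wells without compound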
# GALR2 ag: GALR2 receptor agonists, primary screen, cell-based | Galanin receptor type 2 (Homo sapiens), O43603 | GALR2-expressing cells, agonist activation read-out | activation, %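 (tested at 5 µM)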 | actives 0.48% (n = 140,000);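 active means above mean plus 3 SD of all compounds, about 5% in these data, not always enough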;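 further: 0% = vehicle buffer wells and 100% = reference agonist at full effect; tested in CHO reporter cells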
# PKD1 inh: inhibitors of human PKD1 kinase, biochemical, fluorescence polarization | AID 797, 2007 | Serine/threonine-protein kinase D1 (Homo sapiens), Q15139 | PKD1 kinase fluorescence polarization assay | actives 0.056% (n = 200,000) | inhibition, %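 (about 10 µM by stock and volumes)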;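 active means inhibition of 50% or more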;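 further: controls were vehicle for no effect and a reference inhibitor for full effect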
# Target sequence (Q15139 whole entry, looked up): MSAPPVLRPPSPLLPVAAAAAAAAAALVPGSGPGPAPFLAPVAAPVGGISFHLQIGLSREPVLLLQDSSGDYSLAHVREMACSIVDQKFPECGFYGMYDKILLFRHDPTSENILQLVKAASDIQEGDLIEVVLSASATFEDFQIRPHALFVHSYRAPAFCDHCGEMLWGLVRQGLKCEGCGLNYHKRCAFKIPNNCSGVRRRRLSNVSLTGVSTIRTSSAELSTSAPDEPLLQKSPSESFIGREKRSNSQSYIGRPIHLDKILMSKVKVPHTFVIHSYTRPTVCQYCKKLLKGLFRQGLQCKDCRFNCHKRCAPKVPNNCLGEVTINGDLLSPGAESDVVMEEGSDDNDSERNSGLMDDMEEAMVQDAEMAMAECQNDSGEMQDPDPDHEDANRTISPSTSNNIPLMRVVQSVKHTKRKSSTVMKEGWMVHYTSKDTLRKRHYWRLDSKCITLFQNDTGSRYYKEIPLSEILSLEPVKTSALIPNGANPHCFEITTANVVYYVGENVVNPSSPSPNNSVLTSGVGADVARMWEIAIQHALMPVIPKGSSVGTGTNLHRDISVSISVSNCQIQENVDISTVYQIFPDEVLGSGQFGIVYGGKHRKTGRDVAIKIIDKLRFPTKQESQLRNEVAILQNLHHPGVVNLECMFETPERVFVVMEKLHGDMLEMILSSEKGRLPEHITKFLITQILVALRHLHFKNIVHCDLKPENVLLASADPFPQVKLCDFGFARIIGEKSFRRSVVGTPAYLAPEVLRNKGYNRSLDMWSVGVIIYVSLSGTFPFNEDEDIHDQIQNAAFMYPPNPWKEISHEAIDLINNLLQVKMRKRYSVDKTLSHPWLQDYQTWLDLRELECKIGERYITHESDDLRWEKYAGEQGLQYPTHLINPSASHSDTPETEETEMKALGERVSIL
# Insulin prom inh cell count: second read-out of Insulin prom inh, no call of its own (marks repeat the call); normalized cell count, %; measured here: cell count, toxicity; reference of the scale not given here;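 cells exposed to compound for 48 h; stained nuclei by imaging scaled within each plate; lower means fewer cells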
# HSV augment primary fold: second read-out of HSV augment, no call of its own (marks repeat the call); fold increase; compound at 10 µM; measured here: primary screen fold increase 10 uM; tested in PC3 cells;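 GFP signal in the first replicate; 1 = infected wells without compound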
# An asterisk follows results filed as active; i = inactive; u = inconclusive; x = no result given.
SMILES,RGS16-Gao,Insulin prom inh,Insulin prom inh cell count,HSV augment,HSV augment primary fold,GALR2 ag,PKD1 inh
CCC(=O)Nc1cccc(C(=O)OC)c1,108,x,x,i,1.2,x,x
CCCCC(=O)Nc1ccc(NC(=O)c2cccnc2)cn1,106,-15,58,i,0.81,-1.9,14
NC(=O)c1sc2nc(N3CCCCC3)c3c(c2c1N)CCCC3,101,0,112,i,0.91,-0.3,-4
COc1cc(CCC(=O)OCC(=O)Nc2c(C)cccc2C(C)C)cc(OC)c1OC,101,x,x,i,1.1,-0.1,-3
O=C(N/N=C\c1ccc(Br)o1)C1COc2ccccc2O1 (stereo unspecified),101,x,x,i,0.7,x,-3
O=C(C1CCN(c2nnnn2-c2ccccc2)CC1)N1CCN(c2ccccc2)CC1,100,-46,156,i,1,-0.1,-4
Cc1ccc(C)c(N2CCN(CC(=O)Nc3ccc4[nH]c(=O)[nH]c4c3)CC2)c1,102,x,x,i,0.87,-0.7,-2
Cc1cc(C)cc(NC(=O)C2CCN(c3nccs3)CC2)c1,142,0,98,i,0.94,-0.7,-9
CN(C)S(=O)(=O)c1cc(S(=O)(=O)N(C)C)c(Cl)cc1N,104,x,x,i,1.1,-1.1,-12
CC(=O)Nc1sc(C)c(C)c1C(=O)Nc1ccc(C)cc1,101,20,71,i,0.88,-1.2,-16
CCOc1cc(CNc2ccccc2SC)ccc1O,105,-37,152,i,0.94,-0.5,-12
Cc1ccc(NC(=O)COC(=O)c2cc(Cl)cc(Cl)c2)c(Br)c1,104,-64,119,i,0.94,-0.2,-6
CC1CN(c2ccc(NC(=O)c3ccco3)cc2C(=O)O)CC(C)O1 (stereo unspecified),111,x,x,i,1,x,x
Cc1ccc2c(c1)CCCN2C(=O)c1ccoc1C,101,-12,106,i,0.87,-1.9,1
CC1(C)C2CCC1(CS(=O)(=O)Nc1ccc(S(=O)(=O)N3CCCC3)cc1)C(=O)C2 (stereo unspecified),136,-3,67,i,0.94,-1.7,-13
CCOc1ccc(CCNC(=O)Cn2cccc2C(=O)c2ccccc2C)cc1OCC,112,-50,107,i,0.84,1.1,6
Cc1ccc(CNC(=O)C2CCC(CNc3c(N4CCOCC4)c(=O)c3=O)CC2)cc1 (stereo unspecified),48,x,x,i,0.92,-3.2,-18
Cn1c(O)c(N=NC(=O)CNC(=O)c2ccco2)c2ccccc21,98,x,x,i,0.86,-0.5,2
O=C(NCCSCc1ccccc1)c1ccc(F)cc1,82,30,51,i,1,-0.1,4
Brc1cccc(C2CC(c3ccccc3)n3nnnc3N2)c1 (stereo unspecified),128,7,83,i,1.2,-0.3,3
Nc1nc(Nc2ccccc2F)nc(NCc2ccccc2)c1[N+](=O)[O-],98,x,x,i,0.82,x,x
CC(CNS(=O)(=O)c1ccccc1)Sc1nncn1C (stereo unspecified),99,x,x,i,1.1,x,x
COc1ccc(-c2nc(N)ncc2-c2csc(C)n2)c(O)c1,120,3,52,i,0.86,-2.4,9
O=S1(=O)CC(O)C(NCc2ccco2)C1 (stereo unspecified),102,x,x,i,0.91,2.0,-1
COc1cc(C(=O)NNC2=NC(C)(C)Cc3cc(C)c(C)cc32)cc(OC)c1OC,106,-14,92,i,1.1,-0.5,3
O=C1c2ccccc2C(Nc2ccc(S(=O)(=O)N3CCCCCC3)cc2)N1c1ccccn1 (stereo unspecified),100,x,x,i,1,-1.3,-2
CN(/N=C/c1ccc2c(c1)OCO2)c1ccccc1,103,-11,113,i,0.96,-0.4,-3
CO/N=C/c1c(C(=O)OC)nn(-c2ccccc2)c1Cl,99,-40,105,i,0.9,x,2
COc1cc(/C=N/Nc2ccc(Cl)c(C(=O)O)c2)ccc1OC(=O)c1cccs1,105,13,98,i,1,x,-1
CCCCCCN(C(=O)CCCCCN1C(=O)NC(c2ccc(C(C)(C)C)cc2)C(C(=O)OCc2ccccc2)=C1C)C(C(=O)NCCCC)c1ccc(OCC(=O)OC)c(C(=O)OC)c1 (stereo unspecified),99,x,x,i,0.64,x,x
CCOc1cccc(C(=O)NC(=S)Nc2cccc(C)c2)c1,94,0,101,i,1.1,-2.5,-7
O=C(NCc1csc(-c2cccs2)n1)Nc1ccc(F)cc1F,97,x,x,i,0.98,x,x
Cc1cc(Nc2c(C)cccc2C)n2nc(C)nc2n1,111,x,x,i,1.1,-0.8,-11
CC1=NN(C(=O)c2nn(C)cc2Br)C(O)(C(F)(F)F)C1 (stereo unspecified),103,17,166,i,0.64,-0.9,-3
C=CCOc1c(Br)cc(/C=C(\C#N)C(N)=O)cc1OC,97,x,x,i,0.78,x,x
CCN1C(=O)/C(=C2\C=Cc3cc(C)ccc3N2CC)OC1=S,107,11,142,i,1,-2.3,-8
CCc1ccc(N2CC(C(=O)Nc3nnc(CC)s3)CC2=O)cc1 (stereo unspecified),101,-6,101,i,1,-0.2,-3
CC(=O)Nc1cccc(NC(=O)CSc2nnnn2C(C)C)c1,106,-3,144,i,0.94,0.3,-10
CN(C)c1nc(N)nc(-c2nc3ccccc3s2)n1,100,60,99,i,0.96,-3.6,-6
Cc1cc(CNC(=O)CC2C(=O)NCCN2CC(c2ccccc2)c2ccccc2)on1 (stereo unspecified),97,x,x,i,0.7,x,-2
CCOC(=O)N1CCN(C(=S)Nc2ccc(C)cc2)CC1,103,40,105,i,0.98,-1.1,-3
COCCCNCCOCCOc1ccccc1-c1ccccc1,85,-62,104,x,x,-1.3,-4
Cn1c(=O)[nH]c(=O)c2c1nc(CN1CCN(c3ccccc3F)CC1)n2CC(N)=O,97,x,x,i,0.98,-1.7,-13
CCNC(=S)SCCOc1ccccc1C,103,-36,98,i,0.92,0.4,-11
Cc1cc(NC(=O)C(=O)NCCN2CCN(C(=O)c3cccs3)CC2)ccc1Br,140,67,155,i,1,-2.3,-9
CCC(C(=O)NC1CCCC1)N(Cc1ccco1)C(=O)Cn1nnc(-c2ccc(C)cc2)n1 (stereo unspecified),96,-39,83,i,0.98,-0.8,-4
CCOC(=O)/C=C/C(=O)OCC(=O)Nc1cccc(Cl)c1Cl,99,x,x,i,0.99,x,-4
C(=N\Nc1ccc2ccccc2n1)/c1ccc2c(c1)OCCO2,249,-33,63,i,0.96,x,1

# 6 of the entries above in order of their number in PKD1 inh, ascending.
Molecule	RGS16-Gao	HSV augment primary fold	GALR2 ag	PKD1 inh
Cn1c(=O)[nH]c(=O)c2c1nc(CN1CCN(c3ccccc3F)CC1)n2CC(N)=O	97	0.98	-1.7	-13
CC(=O)Nc1cccc(NC(=O)CSc2nnnn2C(C)C)c1	106	0.94	0.3	-10
Cc1cc(NC(=O)C(=O)NCCN2CCN(C(=O)c3cccs3)CC2)ccc1Br	140	1	-2.3	-9
CN(C)c1nc(N)nc(-c2nc3ccccc3s2)n1	100	0.96	-3.6	-6
CCc1ccc(N2CC(C(=O)Nc3nnc(CC)s3)CC2=O)cc1 (stereo unspecified)	101	1	-0.2	-3
Cc1cc(CNC(=O)CC2C(=O)NCCN2CC(c2ccccc2)c2ccccc2)on1 (stereo unspecified)	97	0.7	x	-2

# Continued:
SMILES,RGS16-Gao,Insulin prom inh,Insulin prom inh cell count,HSV augment,HSV augment primary fold,GALR2 ag,PKD1 inh
O=C(Cn1cccc1C(=O)c1ccccc1)NCc1ccco1,105,-57,18,i,0.91,-0.6,7
COCCOC(=O)C(C#N)c1nc2ccccc2nc1N1CCCC1 (stereo unspecified),90,23,103,i,1,-1.4,-6
CCOc1cccc(-c2cc(C(=O)NN)[nH]n2)c1,99,-63,78,i,0.98,x,5
CS(=O)(=O)N(CC(N)=O)c1ccc2c(c1)OCO2,76,13,85,i,0.9,0.1,3
CCOc1ccccc1NC(=O)C(=O)N/N=C/c1cc(Br)ccc1O,97,x,x,i,0.87,x,-8
O=C(Cc1ccccc1)N/N=C/c1ccc[nH]1,99,x,x,i,0.95,x,x
O=C(O)COc1ccccc1C(Nc1cccnc1)c1cc(Cl)c2cccnc2c1O (stereo unspecified),106,13,138,i,0.9,x,-1
Cc1cc(C(=O)NC2CCCCC2)c2cc(F)ccc2n1,98,x,x,i,0.93,x,-1
Cc1ccccc1Cn1cc(NC(=O)c2cc(-c3cccs3)on2)cn1,106,-73,159,i,0.91,-1.4,-15
O=Cc1ccc(Oc2cccc(C(F)(F)F)c2)nc1,106,x,x,i,0.87,x,7
CCCc1oc2c(c(=O)c1CC)C(=O)CC(C)(C)C2,103,44,95,i,0.86,-0.1,-6
CN1CCN(C(=O)c2ccc(Cl)c(S(=O)(=O)N3CCCCCC3)c2)CC1,103,x,x,i,1,x,-2
COC(=O)c1cnc(SC)nc1C,111,-163,138,i,0.89,-4.1,-5
FC(F)(F)C1CC(c2cccs2)Nc2ncnn21 (stereo unspecified),102,x,x,i,0.87,0.6,-6
O=C1NC(=Nc2ccc(Cl)cc2)SC1Cc1cc(Cl)ccc1Cl (stereo unspecified),105,x,x,x,x,0.8,-6
CCC(C)NC(=O)CN(C)S(=O)(=O)c1ccc2c(c1)c(=O)n(C)c(=O)n2C (stereo unspecified),103,x,x,i,0.9,-2.0,-3
CCOC(=O)C(=O)Nc1cc([N+](=O)[O-])ccc1C,103,0,133,i,1,0.4,-13
COc1cccc(CC(NC(C)=O)C(=O)NC2CCN(S(=O)(=O)c3ccc(F)cc3)CC2)c1OC (stereo unspecified),104,-12,98,i,0.92,x,-7
O=C(COc1c(CO)cc(Br)cc1CO)NC1CCCc2ccccc21 (stereo unspecified),102,33,150,i,0.92,x,7
CCCCC(O)(CCCC)C(=O)NN(C(=O)c1cccnc1Cl)c1ccccc1,78,x,x,i,1,x,x
Cc1ccc(C)c2c1[nH]c1ccccc12,103,38,94,i,1,-1.1,3
COc1cccc(C2c3c(C)nn(-c4ccc([N+](=O)[O-])cc4)c3N=C3C(=O)Nc4ccccc4N32)c1 (stereo unspecified),102,x,x,i,0.89,x,0
O=C(Cc1nc2ccccc2[nH]c1=O)c1ccccc1,99,x,x,u,x,x,-4
O=C(Nc1c(-c2cccs2)nc2ccccn12)c1ccccc1F,85,0,137,i,0.97,x,1
O=C(CN(Cc1ccco1)C(=O)CNS(=O)(=O)c1ccccc1)NC1CCCCC1,101,x,x,i,0.94,-2.5,2
CCOC(=O)c1c(NC(=O)c2cccnc2Cl)sc(C(=O)N(C)C)c1C,50,-15,70,i,0.91,1.7,11
Cc1ccc(-n2nnc3c(=O)n(CC(=O)N4CCCC4)cnc32)cc1,77,-7,121,i,1,-1.3,2
CCOc1cc(CNC(=O)CN2C(=O)c3ccccc3S2(=O)=O)ccc1OC,105,x,x,i,0.83,-1.8,-7
S=C(NCCN1CCOCC1)Nc1cccc(Cl)c1,160,0,77,i,0.91,-0.7,-2
NS(=O)(=O)c1ccc(CCNC(=O)C2CCN(S(=O)(=O)c3ccc(Br)s3)CC2)cc1,102,26,107,i,0.83,x,-11
Cc1nn(C)c(C)c1Sc1ccccc1N,96,30,91,i,0.92,x,0
COc1ccc(/C=C2\SC(=S)N(CCC(=O)NC3=NCCS3)C2=O)cc1OC,102,x,x,i,1,-0.2,-18
COc1cccc2cc(C(C)N(CCCN3CCOCC3)C(=O)Nc3ccc(Cl)cc3)oc12 (stereo unspecified),100,x,x,i,0.92,-1.0,-7
c1coc(CN2CCN(C(c3cccs3)c3nnnn3C3CCCC3)CC2)c1 (stereo unspecified),100,-10,132,i,0.99,-0.3,-4
CC(=O)c1ccc(N2CCN(C(C)C(=O)NC3CCCc4ccccc43)CC2)cc1 (stereo unspecified),99,-47,88,i,1.1,-0.7,11
CC(O)Cc1nsc(NC(=O)c2ccc(Br)o2)n1 (stereo unspecified),102,9,88,i,0.87,0.7,4
Cc1noc(C)c1/C=N/Nc1ccccn1,111,-7,114,i,0.91,x,2
O=C(O)c1ccc(N/N=C/c2ccc(-c3cccc(Cl)c3)o2)cc1,102,x,x,i,0.97,x,x
COc1ccc(C2=NN(c3ccccc3)C(=O)/C2=C\c2ccc(O)c(OC)c2)cc1,72,21,51,x,x,x,-7

# Taken from above.
# Entry for CCOc1cc(CNC(=O)CN2C(=O)c3ccccc3S2(=O)=O)ccc1OC in RGS16-Gao: 105
# Entry for Cc1noc(C)c1/C=N/Nc1ccccn1 in PKD1 inh: 2

# Arranged by heavy-atom count (highest first): part of the list above
SMILES,RGS16-Gao,Insulin prom inh,Insulin prom inh cell count,HSV augment,HSV augment primary fold,GALR2 ag,PKD1 inh
CC(=O)c1ccc(N2CCN(C(C)C(=O)NC3CCCc4ccccc43)CC2)cc1 (stereo unspecified),99,-47,88,i,1.1,-0.7,11
CCOc1cccc(C(=O)NC(=S)Nc2cccc(C)c2)c1,94,0,101,i,1.1,-2.5,-7
CO/N=C/c1c(C(=O)OC)nn(-c2ccccc2)c1Cl,99,-40,105,i,0.9,x,2
